CBX7 inh – inhibitors of human CBX7 binding to H3K27me3 peptide; AlphaScreen His6-CBX7 / biotin-H3K27me3 peptide binding; stronger effect = lower value; normalised signal (fraction of DMSO) (no concentration beside the values); 66,000 tested, 1.1% active; in the data active means normalised signal below about 0.5;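 further: 100 nL library stock added to about 20 µL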
Target sequence (O95931 whole entry, looked up): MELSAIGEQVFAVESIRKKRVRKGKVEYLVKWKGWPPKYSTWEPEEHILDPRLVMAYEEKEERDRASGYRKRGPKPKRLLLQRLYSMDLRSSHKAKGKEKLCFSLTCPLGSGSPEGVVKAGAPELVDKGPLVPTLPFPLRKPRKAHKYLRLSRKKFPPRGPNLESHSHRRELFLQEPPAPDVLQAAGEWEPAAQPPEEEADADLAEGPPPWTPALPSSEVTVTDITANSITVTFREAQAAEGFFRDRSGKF
CBX7 inh z-score – also measured in CBX7 inh; calls as there; z-score; measured here: z-score of CBX7 signal; some inactives read as strong as hits; reference of the scale not given here;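 same signal on another scale; lower means less binding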
* hit, by the source's call; & = joins results of further samples; ! = repeats disagree.

SMILES	CBX7 inh	CBX7 inh z-score
Oc1ccccc1-c1nc(/C=C/c2ccccc2F)nn1-c1ccccc1	0.97	-0.41
COc1ccc(Nc2nc(-c3cccnc3)cs2)cc1	1	0.16
CCCCNC(=O)c1cc(Nc2ccc(OC)c(OC)c2)nc2ccccc12	0.88	-1.5
O=C(CCS(=O)(=O)c1nc(-c2cccs2)cc(C(F)(F)F)n1)Nc1ccc(F)cc1F	1.1	3.6
Cc1ccc(-c2noc(CN(C(=O)c3cc(C)ccc3C)C(C)C)n2)cc1	0.93	-0.65
Cc1ccnc(NC(=O)c2ccc(COc3ccc(Cl)cc3)o2)c1	0.91	-1
COc1cccc(NC(=O)N(C2CCCCCC2)C2CCN(C(C)=O)CC2)c1	1.1	1.3
Cc1oc(-c2ccccc2F)nc1CN1CCC(C(=O)NC2CCCc3ccccc32)CC1 (stereo not given)	1.2	2.6
Cc1oc(-c2cccc(Cl)c2)nc1CN1CCCC(C(=O)NCCN(C)CCc2ccccc2)C1 (stereo not given)	0.97	-0.83
CC1CCC(NC(=O)C2c3ccccc3C(=O)N2Cc2ccccc2Cl)CC1 (stereo not given)	1.2	2.7
O=C1CC2CS(=O)(=O)CC2N1Cc1cccnc1 (stereo not given)	0.96	-0.62
COc1cccc(Cn2cc(S(=O)(=O)c3ccc(C)cc3)c(=O)c3cc4c(cc32)OCO4)c1	1	0.043
CCOc1ccc(Nc2cc(-n3nc(C)cc3-c3ccccc3)ncn2)cc1	0.77	-1.5
Cc1nnc(Sc2cc(C(=O)NCCc3ccccc3)c3ccccc3n2)s1	1	-0.069
Cc1ccc(C(=O)Nc2c(C(=O)Nc3cccc(F)c3)oc3ccccc23)cc1	0.99	-0.075
O=C1c2nccnc2C(=O)N1c1ccc(Br)cn1	1.1	2.3
Cc1ccc(NC(=O)c2oc3ccc(S(=O)(=O)N4CC(C)CC(C)C4)cc3c2C)cc1Cl (stereo not given)	1	1.3
CNC(=O)CN1C(=O)COc2ccc(C(C)(C)C)cc21	0.98	-0.33
Cc1onc(-c2ccccc2)c1C(=O)Nc1cccc(C#N)c1	1.1	2
CCOC(=O)C1CCN(C(=O)c2ccccc2NC(=O)c2ccc(Cl)cc2)CC1	1	0.24
CCN(CC)S(=O)(=O)c1ccc2oc(C(=O)Nc3ccccc3Cl)c(C)c2c1	1.1	2.4
Cc1cc(C)cc(NC(=O)c2cnc3ccccn3c2=O)c1	1	0.52
Cn1cnnc1SCC(=O)c1ccc2c(c1)OCO2	1	1.7
Cc1ccc(C)c(N2CCN(c3ncnc4c3cnn4-c3ccc(Cl)cc3)CC2)c1	1	0.086
CCOc1ccc2nc(SCC(=O)c3ccc(C)cc3C)sc2c1	0.98	-0.077
O=C(Nc1cnn(Cc2ccc(F)cc2)c1)c1cc(-c2ccc(Cl)cc2)on1	0.97	-0.72
O=C(Nc1ccc(F)c(Cl)c1)c1cc2c(s1)-c1ccccc1OC2	1.1	3.6
Cc1nc2c(C(=O)N3CCCCC3)cnn2c(C)c1Cc1ccccc1F	1	-0.018
COc1ccc(NC(=O)CC2Sc3ccccc3NC2=O)c(OC)c1 (stereo not given)	1.1	0.23
Cc1onc(-c2ccccc2Cl)c1C(=O)Nc1cccc(O)c1	0.96&0.99	-1&-0.074

4 entries picked at random from the list so far:
SMILES	CBX7 inh	CBX7 inh z-score
CCN(CC)S(=O)(=O)c1ccc2oc(C(=O)Nc3ccccc3Cl)c(C)c2c1	1.1	2.4
CCOc1ccc2nc(SCC(=O)c3ccc(C)cc3C)sc2c1	0.98	-0.077
Cc1ccc(NC(=O)c2oc3ccc(S(=O)(=O)N4CC(C)CC(C)C4)cc3c2C)cc1Cl (stereo not given)	1	1.3
CNC(=O)CN1C(=O)COc2ccc(C(C)(C)C)cc21	0.98	-0.33

Next entries:
SMILES	CBX7 inh	CBX7 inh z-score
O=C1CC(=O)Nc2cc(S(=O)(=O)N3CCc4ccccc43)ccc2N1	1	0.034
CN(c1ccccc1)C(C(=O)NC1CCCC1)c1ccc(Cl)cc1 (stereo not given)	1	0.54
CCOc1ccccc1NS(=O)(=O)c1ccc2[nH]c(=O)c(=O)[nH]c2c1	0.94	-0.077
CCN(C(=O)c1cc2c(s1)-c1ccccc1OC2)c1ccccc1C	1.2	11
CCOC(=O)c1cnc2c(OC)cccc2c1NCCCN1CCOCC1	0.84	-0.18
Cc1ccc(NC(=O)CSc2nnc(CNC(=O)c3ccccc3F)o2)c(C)c1	0.98	-0.58
Cc1ccccc1NC(=O)Cc1cn(C)c2ccccc12	1	0.94
O=C(Nc1cnn(Cc2ccc(F)cc2)c1)c1cc(-c2ccco2)on1	0.94	-1.5
CCCN(CCC)CCCNC(=O)c1ccc2c(c1)N(Cc1cc(C)ccc1C)C(=O)CS2	0.98	-0.42
CC1CCN(c2nc3ccc(C(=O)NCc4ccc(Cl)cc4)cc3s2)CC1	0.98	-0.48
O=C(COc1ccc(-n2cnnn2)cc1)Nc1ccc(OC(F)(F)F)cc1	0.98	-0.077
Cn1c(SCC(=O)NCc2ccc(F)cc2)nnc1-c1c[nH]c2ccccc12	1.1	1.3
CCC(C)NC(=O)C1CCCN(C(=O)c2cc3sccc3n2C)C1 (stereo not given)	0.95	-1.3
Cc1ccc2cccc(Oc3ncnc4scc(-c5ccccc5)c34)c2n1	0.83	-0.34
CC(NC(=O)c1cc(-c2ccc(O)cc2)on1)c1ccccc1 (stereo not given)	1	0.15
CCC1Oc2ccc(C)cc2N(CC(=O)NCc2ccc3c(c2)OCO3)C1=O (stereo not given)	1.1	1.2
COc1ccc(-c2c(C)nn3c(N4CCN(c5ccccc5)CC4)cc(C)nc23)cc1OC	0.88	-0.3
CCN(c1ccccc1)c1cc2ccccc2c(=O)[nH]1	0.99	-0.13
Cc1cc(C)cc(NC(=O)C2CCN(S(=O)(=O)c3cccnc3)CC2)c1	1	0.96
O=C(CCCN1C(=O)CSc2ncccc21)N1CCN(c2cccc(C(F)(F)F)c2)CC1	0.97	-0.073
CCC(C)NC(=O)C1CCC(=O)N1Cc1ccc(F)cc1 (stereo not given)	1.1	2.1
CCc1ccc(-c2nc(CN3CCC(C(=O)NCCC4=CCCCC4)CC3)c(C)o2)cc1	0.91	-1.3
Cc1ccc2cc(CCNC(=O)c3ccccc3)c(=O)[nH]c2c1C	1.1	2
Cc1cccc(CN2CCN(CC(=O)N3CCc4ccccc4C3)C2=O)c1	1.1	1
CC1(C)CC(=O)c2c(nn(-c3ccccc3)c2-c2ccc(Br)cc2)C1	1.1	1.3
CCn1c(C(=O)N2CCC(C(=O)N3CCN(c4ccc(OC)cc4)CC3)CC2)cc2sccc21	0.92	-2.1
COc1ccc(Nc2cc(C(=O)NCCN3CCCCCC3)c3ccccc3n2)cc1	0.9	-0.097
COc1cc(C)c(S(=O)(=O)NCCc2c(C)[nH]c3c(C)cccc23)cc1C	0.88	-2.5
COc1ccc(CCNC(=O)C2CCCN(S(C)(=O)=O)C2)cc1OC (stereo not given)	0.99	-0.15
COc1cccc(NC(=O)c2ccc(NC3=NC4CS(=O)(=O)CC4S3)cc2)c1 (stereo not given)	1	0.81

Ordered by the number under CBX7 inh z-score (falling): 5 of the compounds above
smiles,CBX7 inh z-score
CCC(C)NC(=O)C1CCC(=O)N1Cc1ccc(F)cc1 (stereo not given),2.1
COc1cccc(NC(=O)c2ccc(NC3=NC4CS(=O)(=O)CC4S3)cc2)c1 (stereo not given),0.81
COc1ccc(Nc2cc(C(=O)NCCN3CCCCCC3)c3ccccc3n2)cc1,-0.097
CCc1ccc(-c2nc(CN3CCC(C(=O)NCCC4=CCCCC4)CC3)c(C)o2)cc1,-1.3
COc1cc(C)c(S(=O)(=O)NCCc2c(C)[nH]c3c(C)cccc23)cc1C,-2.5

Next entries.
SMILES	CBX7 inh	CBX7 inh z-score
CCCC1=Nc2cc(C(=O)NCCCOC(C)C)ccc2Sc2ccccc21	0.87	-1.9
Fc1ccc(-c2csc(Nc3ccc4c(c3)OCO4)n2)cc1	0.38*!	-6.8*!
O=C(Nc1ccc2c(c1)OCO2)C(c1ccccc1)N1CCOCC1 (stereo not given)	1.1	1.6
Cc1cc(C)n(-c2nc3ccccc3nc2Nc2cccc(Cl)c2C)n1	1.3	6.6
Cc1nn(Cc2ccc(F)cc2)c(C)c1NC(=O)c1cc(-c2ccc3c(c2)OCO3)on1	1	0.25
CC(NC(=O)Cc1ccccc1)c1nc2ccccc2n1C (stereo not given)	0.82	-2.1
COc1ccc(CCCc2nnc(SCC(=O)Nc3ccc(F)cc3)o2)cc1C	0.92	-0.91
CN1CCN(c2ccccc2NS(=O)(=O)c2ccc3c(c2)CCN3C(=O)C2CCC2)CC1	1	-0.058
Cc1nnc(Sc2cc(C(=O)NCCCSC3CCCCC3)c3ccccc3n2)s1	1	0.23
Cc1cc2c(=O)n(CC(=O)Nc3cccc(Cl)c3)cnc2s1	1	1.5
CCC(C)NC(=O)C1CCN(c2nc3ccccc3[nH]2)CC1 (stereo not given)	1	0.27
C=CCn1c(SCc2nc3ccccc3[nH]2)nnc1-c1ccc(OC)cc1	0.92	-1.1
CCCn1c(NCc2ccccc2NS(=O)(=O)c2ccc(C)cc2)nc2ccccc21	0.9	-0.24
CCOc1ccc(-c2nc(SCC(=O)NCCCOC)c(-c3ccccc3)[nH]2)cc1	0.97	-0.47
CCOc1ccc(CCNC(=O)CN2C(=O)CSc3ncccc32)cc1OCC	1	0.77

Of the compounds above, these have bromine.
SMILES	CBX7 inh	CBX7 inh z-score
O=C1c2nccnc2C(=O)N1c1ccc(Br)cn1	1.1	2.3
CC1(C)CC(=O)c2c(nn(-c3ccccc3)c2-c2ccc(Br)cc2)C1	1.1	1.3

Single records (already shown). Order of screens: CBX7 inh, CBX7 inh z-score
Entry for CCOc1ccc(CCNC(=O)CN2C(=O)CSc3ncccc32)cc1OCC → 1, 0.77
Entry for CCCn1c(NCc2ccccc2NS(=O)(=O)c2ccc(C)cc2)nc2ccccc21 → 0.9, -0.24
Entry for Cc1cc(C)n(-c2nc3ccccc3nc2Nc2cccc(Cl)c2C)n1 → 1.3, 6.6
Entry for CCOc1ccc(-c2nc(SCC(=O)NCCCOC)c(-c3ccccc3)[nH]2)cc1 → 0.97, -0.47
Entry for C=CCn1c(SCc2nc3ccccc3[nH]2)nnc1-c1ccc(OC)cc1 → 0.92, -1.1

Further results follow:
SMILES	CBX7 inh	CBX7 inh z-score
CC(NC(=O)c1cccnc1)C(c1cccs1)N1CCN(Cc2ccccc2)CC1 (stereo not given)	1	0.24
Cc1cccc(C(=O)Nc2cccc(-c3nc4ccccc4o3)c2C)c1	0.99	-0.41
CCc1ccc(OCc2nc(-c3cccs3)no2)cc1	1.3	13
CCN1CCN(c2ncc(C(=O)N3CCCC3)c3ccccc23)CC1	1	1.5
CCCC(=O)Nc1cccc(-c2nc3cc(C)c(C)cc3o2)c1C	1.1	1.2
COc1ccc(OC)c(NS(=O)(=O)c2ccc3c(c2)CC(C)N3C(C)=O)c1 (stereo not given)	0.79	-0.85
COc1ccc(C(=O)Nc2c(-c3ccc(F)cc3)nc3cc(C)ccn23)cc1	1	0.33
O=C(CSc1oc(-c2cccs2)nc1S(=O)(=O)c1ccc(F)cc1)NC1CCCCC1	0.95	-0.081
Cc1ccc(NC(=O)C2CCN(S(=O)(=O)c3ccc4c(c3)CCC(=O)N4)CC2)cc1C	0.99	-0.14
O=C(O)c1ccc(Nc2nc(-c3c[nH]c4ccccc34)cs2)cc1	0.93	-2.8
CN(C)S(=O)(=O)c1ccc(C(=O)Nc2nc3c(s2)C(=O)CC(C)(C)C3)cc1	1	0.79
CCC(=O)N1CCc2cc(S(=O)(=O)NC(C(=O)NCc3ccccc3)C(C)C)ccc21 (stereo not given)	1	1.4
CCCCNC(=O)c1cc(-c2ccc(Cl)cc2)on1	1.1	2
NS(=O)(=O)c1ccc(CCNc2ncnc3c2c(-c2ccccc2)cn3-c2cccc(C(F)(F)F)c2)cc1	0.58	-11
O=C(NCCCN1CCCCC1)c1ccc2c(c1)N(Cc1cccc(Cl)c1)C(=O)c1ccccc1S2	1.2	1.9
CC(=O)N1CCc2cc(S(=O)(=O)NCC(=O)NCc3ccc4c(c3)OCO4)ccc21	1	1.5
COc1ccc2cc(CCNC(=O)C3CCCCC3)c(=O)[nH]c2c1	0.98	-0.51
FC(F)(F)c1ccc(-c2noc(-c3cccc(Br)c3)n2)cc1	1.7	7.6
COc1ccc(-c2noc(CCC(=O)Nc3cc(C)on3)n2)cc1	0.96	-0.039
Cc1cccc(CC(=O)NCCc2cc3ccc(C)cc3[nH]c2=O)c1	1	0.92
CNC(=O)c1ccc(Nc2nnc(-c3ccc(C)c(S(N)(=O)=O)c3)c3ccccc23)cc1	0.95	-1.6
O=C1CC(c2ccc(S(=O)(=O)NCc3ccccc3)cc2)CN1 (stereo not given)	0.93	-1.2
O=C(CN1C(=O)CSc2ccc(S(=O)(=O)N3CCOCC3)cc21)N1CCCCC1	1	0.49
COc1ccc(C(=O)Nc2ccc(NC(=O)c3ccccc3)c(C)c2)cc1	1.3	2.2
CCC1=Nc2cc(C(=O)N3CCN(c4ccc(OC)cc4)CC3)ccc2Sc2ccc(C)cc21	0.59	-21
COc1ccc(-c2nc(CSCC(=O)NCc3ccc(Cl)cc3)c(C)o2)cc1OC	0.82	-2.9
CCOc1ccccc1NC(=O)C(NS(=O)(=O)c1ccc2nc(C)sc2c1)C(C)C (stereo not given)	1.2	1.4
CCC(C(=O)Nc1cccc(OC)c1)n1c(SCc2ccc(F)cc2)nc2ccncc21 (stereo not given)	0.92	-3.9
CCOc1ccc(-n2nc3ccc(NC(=O)COc4ccccc4)cc3n2)cc1	0.98	-0.34
COc1ccc(OC)c2[nH]c(=O)c(CCNC(=O)COc3ccc(Cl)cc3Cl)cc12	0.89	-1.5
OC12CCCCC1C(c1ccc(Cl)cc1Cl)NCC2 (stereo not given)	1.1	1.4
Cc1ccc2c(c1)C(c1ccc(F)cc1)N(C(=O)c1ccccc1C)CC(=O)N2 (stereo not given)	1.1	0.76
Cc1ccc2cc(CCNS(=O)(=O)c3ccc(Br)cc3)c(=O)[nH]c2c1	1.1	1
CCOC(=O)c1cnc2c(C)cc(C)cc2c1Nc1ccccc1OCC	1.3	2.7
COc1ccc(-c2[nH]c(-c3ccc(C)cc3)nc2SCC(=O)NC2CCCC2)cc1	0.72	-4.6
COc1ccc(OC)c2[nH]c(=O)c(CCNC(=O)c3cccc(Br)c3)cc12	1	0.61
Cc1nnc2ccc(N3CCN(c4ccccc4)CC3)nn12	0.95	-1.4

Source: PubChem BioAssay

Not all compounds are listed, so the mix of outcomes need not match the whole.
